From PubChem
Six1-Eya2 blk = inhibitors of human Six1/Eya2 interaction; Q15475+O00167; AlphaScreen GST-Six1/His-Eya2 binding, biochemical; stronger effect = lower value; control for the full effect not named in the record; activity change, % (test concentration not listed); 360,000 compounds, 0.56% hits; in the data active = activity change below about -65%; inconclusive = about -30% to -65%; inactive = above about -30%; further: on the % scale 0 is the no-effect control and ±100 the full control effect
Target sequence (O00167 whole entry, looked up): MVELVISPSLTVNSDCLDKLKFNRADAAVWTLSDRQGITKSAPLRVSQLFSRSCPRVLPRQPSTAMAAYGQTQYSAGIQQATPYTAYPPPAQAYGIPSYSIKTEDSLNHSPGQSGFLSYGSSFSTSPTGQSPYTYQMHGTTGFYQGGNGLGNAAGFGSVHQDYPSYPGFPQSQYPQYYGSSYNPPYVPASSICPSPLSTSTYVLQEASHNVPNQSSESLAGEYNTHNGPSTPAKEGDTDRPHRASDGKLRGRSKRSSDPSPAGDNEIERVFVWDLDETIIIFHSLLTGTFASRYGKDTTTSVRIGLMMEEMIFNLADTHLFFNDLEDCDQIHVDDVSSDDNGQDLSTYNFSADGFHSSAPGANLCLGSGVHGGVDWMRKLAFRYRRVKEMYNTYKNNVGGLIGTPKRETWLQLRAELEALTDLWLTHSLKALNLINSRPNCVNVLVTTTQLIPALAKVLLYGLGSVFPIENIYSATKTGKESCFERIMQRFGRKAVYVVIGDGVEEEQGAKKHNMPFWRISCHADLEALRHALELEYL
Target sequence (Q15475 whole entry, looked up): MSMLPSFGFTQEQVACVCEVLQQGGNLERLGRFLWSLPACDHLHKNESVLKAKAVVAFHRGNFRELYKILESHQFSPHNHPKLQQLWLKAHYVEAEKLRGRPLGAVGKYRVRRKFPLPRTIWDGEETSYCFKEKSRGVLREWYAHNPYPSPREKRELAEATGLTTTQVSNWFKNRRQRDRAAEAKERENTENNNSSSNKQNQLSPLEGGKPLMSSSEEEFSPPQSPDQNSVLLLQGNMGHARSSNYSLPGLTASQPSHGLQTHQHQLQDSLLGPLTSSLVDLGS
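AlphaScreen with GST-Six1 and His-Eya2 (5X mix: 250 nM and 500 nM), glutathione donor and nickel acceptor beads; buffer 50 mM Tris pH 8.0, 300 mM NaCl, 1 mM TCEP; 1 h at 37 C in the dark.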
gsp antag = gsp mutant antagonism. gsp-mutant cells, cAMP HTRF, 30 min; control for the full effect not named in the record. AID 624288. Potency, µM (titrated, usually from 76.9 µM), for inactives: top-dose activity change, negative = inhibition, actives largely listed as inhibitors. 340,000 compounds, 0.4% hits; active = falling curve of any shape with a large fitted effect; inconclusive = falling curve, mostly with a smaller effect; inactive = flat or rising curve; cell line not stated here;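 further: intracellular cAMP measured with PDE inhibitor Ro 20-1724 present during compound exposure; potency means the concentration at half of the fitted maximal effect; on the % scale 0 is the no-effect control and ±100 the full control effect; nearly all actives have a fitted effect of over 65% in size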
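HTRF cAMP measurement after 30 min RT detection following 30 min, 37C compound treatment alongside […] (added as 300 uM solution) in G418-selected cells seeded at 2000/well and grown 16–24 h.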
D2 agonist = activates the human D2 dopamine receptor. P14416. DiscoveRx PathHunter D2 beta-arrestin, luminescence, 90 min; 100% = 57 uM dopamine signal. activation, % (concentration not given with the values). 360,000 compounds, 0.084% hits; in the data active = activation above about 40%; inconclusive = about 15% to 40%; inactive = below about 15%; further: the text of the record calls up to 30% inactive
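Agonist mode: compounds alone added to overnight-plated D2 PathHunter cells for 90 min at 37 C, with 57 uM final dopamine (EC100) defining full response. Beta-arrestin recruitment detected by chemiluminescent reagent, read after 1 h at ambient temperature.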
gsp ag = gsp mutant agonism; gsp mutant cells, cAMP HTRF, 30 min; control for the full effect not named in the record; Potency, µM (doses to about 76.9 µM), without a hit: at the highest dose activation (cAMP increase), most hits filed as activators; 340,000 compounds, 0.13% hits; AID 624287; active = well fitted activation curve with a large enough effect; inconclusive = small, poorly fitted or top-dose-only effect, or another doubt; inactive = no such curve, though single readings can be large or run the other way; cell line not stated here;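 further: phosphodiesterase inhibitor Ro 20-1724 added with compounds to block cAMP breakdown; potency means the concentration at half of the fitted maximal effect; nearly all actives have a fitted effect of over 60% in size; about a fifth of the inactives were tested at one dose only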
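Cells stably selected in G418 were plated at 2000/well, grown 16-24 hr, then given compounds in DMSO with the PDE inhibitor […] (300 uM solution added) for 30 min at 37C; cAMP was read by HTRF.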
D2 potentiator = positive allosteric modulators of human D2 dopamine receptor; 360,000 compounds, 0.23% hits; AID 624464; P14416; potentiation, % (concentration not given with the values); DiscoveRx D2 beta-arrestin cells, luminescence, 90 min; 100% = 57 uM dopamine signal; active = potentiation of 50% or more; inconclusive = 30% to 50%; inactive = 30% or less;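 further: tested on top of an EC20 dose of dopamine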
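PathHunter beta-arrestin assay in DiscoveRx D2 cells. Compounds were added with an EC20 of dopamine (50 nM final) for 90 min at 37 deg C. Luminescence was read 1 h after detection reagent, with 57 uM dopamine as the EC100 control.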
CtBP-E1A blk = CtBP/E1A binding inhibition. AlphaScreen GST-E1A/His-CtBP binding, 1536-well; stronger effect = lower value; control for the full effect not named in the record. activity change, % (concentration not given with the values). 340,000 compounds, 0.49% hits; in the data active means activity change below about -65%; inconclusive means about -30% to -65%; inactive means above about -30%; further: on the % scale 0 is the no-effect control and ±100 the full control effect
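AlphaScreen with 125 nM GST-E1A and 125 nM His-CtBP (5X stocks) in Tris pH 8.0, 300 mM NaCl, BSA, Tween 20, TCEP. Compounds preincubated 2 h at 37 deg C, then glutathione donor/nickel acceptor beads added for 1 h at 37 deg C in dark.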
* marks the source's active call; other numbers are inactive results; ? = inconclusive; . = no result given; [ ] = dose if it differs, or a comment.

nr	mol	D2 agonist	D2 potentiator	gsp antag	gsp ag	Six1-Eya2 blk	CtBP-E1A blk
1	CCOC(=O)c1oc2ccc(S(=O)(=O)n3nc(-c4ccc(C)cc4)cc3N)cc2c1C	-30	0	-11%	-4%	5	2
2	N#Cc1ccccc1-n1c(N)c(C(=O)N2CCCC2)sc1=S	-3.5	-21	6%	-14%	6	5
3	O=C(N/N=C/c1ccc([N+](=O)[O-])cc1)c1cnccn1	2.0	-3	-9%	28%[15.4 µM]	-16	6
4	O=C1N=C(N2CCOCC2)S/C1=C/c1cc2c(cc1[N+](=O)[O-])OCO2	-1.7	0	-5%	-6%[15.4 µM]	9	11
5	CCOC(=O)C1(C(F)(F)F)N=C(C(F)(F)F)Nc2ccccc21 (centres undefined)	-1.4	-1	5%	-57%[inhibitor]	-7	-7
6	Cn1c(=O)c2c(nc(CN3CCN(C(=O)c4ccco4)CC3)n2Cc2ccc(Cl)cc2)n(C)c1=O	-1.2	-12	10%	7%	-13	-16
7	O=C(NCCc1ccccc1)C1CC(=O)N(c2ccc3c(c2)OCCO3)C1 (centres undefined)	-0.8	7	-1%	-2%	3	-2
8	O=c1[nH]cnc(O)c1C(c1cccc([N+](=O)[O-])c1)c1c(O)nc[nH]c1=O	-1.5	-5	2%	3%[15.4 µM]	5	-2
9	O=C(/C=C/c1ccc([N+](=O)[O-])cc1)Nc1cccc(S(=O)(=O)NC2=NCCCCC2)c1	10	12	?	1%	?	-24
10	CC1=C(C(=O)OCC2CCCO2)C(c2ccccc2)C2=C(CC(C)(C)CC2=O)N1 (centres undefined)	0.1	-6	-3%	13%	-2	8
11	CC(Oc1ccc(Cl)cc1Cl)C(=O)N/N=C1\CCCc2ccccc21 (centres undefined)	2.1	-3	2%	-6%	1	7
12	CCc1nc(N2CCN(C(=O)c3ccco3)CC2)c2oc3ccccc3c2n1	0.3	-9	1%	-36%	-21	-30
13	Nc1nc(-c2ccc(S(=O)(=O)N3CCCCC3)cc2)cs1	-0.9	5	-14%	-19%	-2	.
14	C/C(=N\NC(=O)c1ccc(OC2CCCC2)cc1)c1ccc(C)s1	-4.7	-12	0%	-21%	-1	5
15	CC1CC(Nc2ccccc2)c2ccccc2N1C(=O)c1ccco1 (centres undefined)	-6.9	-4	-17%	1%[15.4 µM]	-4	-3
16	CS(=O)(=O)Nc1ccc(-c2n[nH]c(=S)n2-c2ccccc2)cc1	-2.4	-33	3%	?	1	0
17	CC(=O)c1c(C)[nH]c(C(=O)N2CCN(c3ncccn3)CC2)c1C	-6.4	-2	0%	-1%	8	4
18	O=C(NCc1ccccn1)c1ccc(-c2ccccc2)cc1	-1.9	-5	-1%	-26%[15.4 µM]	2	-22
19	CCOC(=O)c1[nH]cnc1C(=O)NC1CCN(C(=O)OC(C)(C)C)CC1	-0.1	-8	4%	19%	-4	2
20	CC[C@]12c3[nH]c4cc(CCC(=O)N(C)C)ccc4c3CCN1C(=O)[C@@H](CC(=O)NCc1ccco1)C[C@@H]2C(=O)N1CCN(C(=O)C2CC2)CC1	0.0	-8	-8%	.	2	-23
21	O=C(NCCCn1cccn1)C1CCC(=O)N(Cc2cccc(C(F)(F)F)c2)C1 (centres undefined)	-6.4	6	4%	-37%	8	10
22	N#C/C=C/N1CCC(Cc2ccccc2)CC1	1.9	-7	14%	1%[15.4 µM]	-2	1
23	CC(C)NC(=O)COc1ccc(S(=O)(=O)N2CCOCC2)cc1	-4.2	-21	1%	-1%	5	-3
24	O=C(O)C1C2C=CC3(CN(C/C=C/c4ccccc4)C(=O)C13)O2 (centres undefined)	-1.3	1	12%	-3%	4	-1
25	CCOc1ccc(N(CC(=O)NCc2ccco2)C(=O)CCC(=O)Nc2nccs2)cc1	0.6	-16	-1%	1%[15.4 µM]	-5	-13
26	Cc1ccc(C(=O)NCC(=O)NCC(=O)OCc2ccc(Oc3ccc([N+](=O)[O-])cc3)cc2)cc1	2.3	-3	-18%	-3%	-13	-4
27	Clc1ccc(-c2cc(-c3ccccc3)on2)cc1	-0.2	-37	10%	.	2	0
28	COc1ccc(CNC(=O)C2CCN(C(=O)Cc3ccccc3)CC2)cc1	-3.0	1	5%	14%	3	0
29	COC(=O)C1CC(O)C(O)C(O)C1 (centres undefined)	-2.1	-28	7%	.	2	1
30	CC(C)c1ccccc1NC(=S)NCCCn1ccnc1	-5.8	1	7%	-1%	2	4
31	N=C1C(c2nc(-c3ccc(Cl)cc3)cs2)=C(O)CN1NC(=O)c1ccc(O)cc1	-0.8	-6	2%	5%	-7	2
32	Cc1ccccc1S(=O)(=O)Cc1ccc(C(=O)N(C)C2CCCCC2)o1	-0.9	0	50µM*	?	0	5
33	Cc1nc(/C(N)=N/OC(=O)c2ccc(Cl)cc2)c(C(F)(F)F)o1	8.5	14	4%	-36%[inhibitor]	15	20
34	CCC1CCC(C(=O)NC(C(=O)NCCCN2CCCCC2C)C(C)C)CC1 (centres undefined)	1.4	-7	13%	23%	8	1
35	O=C(Nc1ccc(Cl)cc1N1CCOCC1)C1CCCCC1	-8.3	-16	-16%	1%	1	-7
36	CC(=O)c1ccc(OCC(O)CN2CCN(CCO)CC2)cc1 (centres undefined)	-2.1	-5	12%	-10%	17	0
37	CCN1C(=O)C2(Nc3ccccc3-c3nc4ccccc4n32)c2cc(OC)ccc21 (centres undefined)	-2.3	-17	-20%	-2%	-13	-22
38	COc1ccccc1NCC(=O)NN=C1CCS(=O)(=O)c2ccc(F)cc21	1.7	6	-18%	-1%	-6	-8
39	CC(=O)c1c(C)[nH]c(C(=O)CN2CCN(S(=O)(=O)c3ccccc3[N+](=O)[O-])CC2)c1C	4.7	-4	?	23%	-4	-2
40	CCOc1cc(-c2sc(Nc3ccc(CC)cc3)n[n+]2-c2ccccc2)ccc1OC	-1.4	-12	-21%	.	-2	-2
41	C=CCN=C(NC#N)SCc1ccccc1	-2.5	-8	-12%	-18%	2	5
42	Cc1cc(C)cc(NC(=O)COC(=O)CCCNC(=O)c2ccc(Cl)cc2)c1	-3.8	-18	-4%	10%	-13	-24
43	O=C(NC1=NCCS1)c1sc2cc(F)ccc2c1Cl	-3.1	-8	3%	?	10	1
44	Cn1c(-c2ccc[nH]c2=O)nc2cc(Cl)ccc21	-3.2	4	-4%	20%	1	12
45	CC(CNC(=O)c1ccccc1[N+](=O)[O-])NC(=O)c1ccccc1[N+](=O)[O-] (centres undefined)	-1.1	-6	12%	8%[15.4 µM]	6	2
46	CCc1cc(=O)oc2c(C)c(OCC(=O)NC3CC(C)(C)NC(C)(C)C3)ccc12	-2.2	-11	3%	14%	-12	-14
47	COc1ccccc1N1CCNC(C)C1=O (centres undefined)	4.9	-6	3%	-16%[15.4 µM]	29	-9
48	Cc1ccc(S(=O)(=O)Nc2cnn(-c3ccccc3)c(=O)c2Cl)cc1	0.1	-4	-2%	?	22	4
49	CC(C)(CCc1ccccn1)C(=O)C(CCc1ccccn1)CCc1ccccn1	7.9	-10	-4%	11%[15.4 µM]	2	5
50	COc1ccc(-n2nc3c(c2NC(=O)c2ccc(N4C(=O)CCC4=O)cc2)CSC3)cc1	-3.2	-2	?	?	-5	-2
51	C=CCn1c(NCCc2ccccc2)nc2c1c(=O)n(C)c(=O)n2C	-4.6	18	?	1%	-1	-3
52	CC1CC(C(O)c2ccccn2)C(=O)C(C(O)c2ccccn2)C1 (centres undefined)	-1.4	5	-11%	-16%	4	8
53	Cc1ccccc1-c1nnc(SCC(=O)NC2CCCC2)o1	0.3	-2	-3%	13%	6	11
54	COc1ccc(CNCc2cc3c(C(C)(C)C)nn(-c4ccccc4)c3[nH]c2=O)cc1	-2.6	-15	-4%	-20%	-5	-6
55	O=c1cc(N2CCCCCC2)[nH]c(=O)n1-c1ccc(Cl)cc1	-4.8	-1	10%	-45%[inhibitor]	1	10
56	CC(C)C(OC(=O)CN1C(=O)COc2ccccc21)C(=O)NC1CCCCC1 (centres undefined)	-1.3	-9	8%	1%[15.4 µM]	-3	-12
57	COc1ccc(S(=O)(=O)Nc2c(C)cccc2C)cc1-n1cnnn1	0.7	-2	6%	-5%	-2	2
58	Cn1c(SCc2nc(-c3ccc(Cl)cc3)no2)nnc1-c1ccco1	-1.6	-6	-14%	-47%[inhibitor]	-1	-3
59	O=C(COc1ccc(-c2nnco2)cc1)Nc1c(Cl)cccc1C(F)(F)F	-3.1	-1	9%	5%	-9	0
60	O=C(N/C(=C\c1ccc([N+](=O)[O-])cc1)C(=O)N1CCCCC1)c1ccccc1Br	-1.4	-5	-7%	-1%	4	2

The list continues.
nr	mol	D2 agonist	D2 potentiator	gsp antag	gsp ag	Six1-Eya2 blk	CtBP-E1A blk
61	CC(=O)c1ccc(OCC(=O)NC2CCCCCC2)cc1	-1.2	4	3%	15%	14	1
62	CCN1CCc2c(C#N)c(N3CCCCC3)nc(N3CCOCC3)c2C1	-3.2	-27	-1%	-4%	-2	-2
63	CCC(CC)CN1CCC(CN2CCNC(=O)C2=O)CC1	-0.3	4	5%	.	-11	-27
64	CC1(C)CC(NC(=O)C(Cl)(Cl)Cl)CC(C)(C)N1	0.0	2	12%	-16%	0	1
65	Cc1ccc(NC(=O)CSc2nnc(COc3ccccc3C)o2)cc1	-4.9	-7	0%	1%[15.4 µM]	-2	-9
66	C[C@H](NC(=O)C1CC(=O)N(c2ccc3c(c2)OCCO3)C1)C(=O)N1CCCCC1 (some centres undefined)	-6.7	-13	0%	-1%	2	8

From no. 65 to 66, copied from above:
nr	mol	D2 agonist	D2 potentiator	gsp antag	gsp ag	Six1-Eya2 blk	CtBP-E1A blk
65	Cc1ccc(NC(=O)CSc2nnc(COc3ccccc3C)o2)cc1	-4.9	-7	0%	1%[15.4 µM]	-2	-9
66	C[C@H](NC(=O)C1CC(=O)N(c2ccc3c(c2)OCCO3)C1)C(=O)N1CCCCC1 (some centres undefined)	-6.7	-13	0%	-1%	2	8

3 compounds from above, ordered by the value under Six1-Eya2 blk, falling:
No.	SMILES	Six1-Eya2 blk
44	Cn1c(-c2ccc[nH]c2=O)nc2cc(Cl)ccc21	1
56	CC(C)C(OC(=O)CN1C(=O)COc2ccccc21)C(=O)NC1CCCCC1 (centres undefined)	-3
54	COc1ccc(CNCc2cc3c(C(C)(C)C)nn(-c4ccccc4)c3[nH]c2=O)cc1	-5
